KCNQ2 block: KCNQ2 potassium channel inhibitors, primary screen, cell-based, CHO-K1, FluxOR thallium flux, B-score (AID 2156). 310,000 compounds, 1.1% hits. 20 min; active compounds read low; only compounds with negative scores are shown here; some inactives read as strong as hits. O88943. B-score at 10 µM;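 active means fluorescence ratio B-score at most minus 3 library SDs, with starting brightness B-score within 2 library SDs, cut at about -5.5 in these data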
Target sequence (O88943 whole entry, looked up): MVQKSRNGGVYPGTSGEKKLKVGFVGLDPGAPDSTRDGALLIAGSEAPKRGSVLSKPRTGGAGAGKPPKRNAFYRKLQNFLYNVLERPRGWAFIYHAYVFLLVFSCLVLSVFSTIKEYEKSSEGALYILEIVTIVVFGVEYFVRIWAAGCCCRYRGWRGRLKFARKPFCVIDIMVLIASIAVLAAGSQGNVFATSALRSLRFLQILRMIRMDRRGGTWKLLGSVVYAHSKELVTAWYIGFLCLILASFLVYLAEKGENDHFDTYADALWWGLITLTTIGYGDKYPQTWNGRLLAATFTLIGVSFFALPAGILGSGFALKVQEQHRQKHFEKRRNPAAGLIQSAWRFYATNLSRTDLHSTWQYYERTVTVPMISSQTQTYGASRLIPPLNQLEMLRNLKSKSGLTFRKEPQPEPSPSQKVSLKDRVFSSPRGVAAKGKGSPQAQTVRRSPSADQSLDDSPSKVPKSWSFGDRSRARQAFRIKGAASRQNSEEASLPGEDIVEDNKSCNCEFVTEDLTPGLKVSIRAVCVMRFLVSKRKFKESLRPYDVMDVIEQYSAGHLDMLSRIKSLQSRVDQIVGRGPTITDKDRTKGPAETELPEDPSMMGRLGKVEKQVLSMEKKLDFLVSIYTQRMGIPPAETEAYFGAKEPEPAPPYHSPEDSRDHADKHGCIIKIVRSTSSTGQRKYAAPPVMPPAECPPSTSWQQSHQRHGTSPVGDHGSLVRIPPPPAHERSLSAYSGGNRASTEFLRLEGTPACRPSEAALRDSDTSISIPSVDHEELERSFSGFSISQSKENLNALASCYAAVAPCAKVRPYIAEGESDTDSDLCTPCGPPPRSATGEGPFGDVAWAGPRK
KCNQ2 block baseline: second read-out of KCNQ2 block, no call of its own (marks repeat the call); B-score; measured here: initial fluorescence intensity artifact check;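 brightness before thallium and not channel activity; 0 = typical well and far values either way flag optical interference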
* marks the source's active call; other numbers are inactive results; i = inactive. Some of the compounds tested, so the mix of outcomes need not match the whole.

SMILES	KCNQ2 block	KCNQ2 block baseline
CC1CCc2nc(/C(C#N)=C/c3cccnc3)sc2C1 (configuration not stated)	i	-0.03
O=C(CN1C(=O)COc2ccc(S(=O)(=O)N3CCCCC3)cc21)NCc1ccccc1Cl	i	0.14
Cc1ccnc(SCC(=O)Nc2sc3c(c2C#N)CCCC3)n1	i	0.01
O=c1oc2ccccc2c(Cl)c1CN1CCCCC1	i	-1.5
CC(C)(CNC(=S)NCCc1ccccc1)CNC(=S)NCCc1ccccc1	i	0.86
Cc1cccc(NC(=O)Cn2cnc3c(oc4ccccc43)c2=O)c1	i	3
Cc1ccc(/C=N\NC(=O)c2ccc(Cn3cc(Br)c([N+](=O)[O-])n3)o2)o1	i	0.42
Cc1cc(NCC2CCCCC2)nc2ccccc12	i	-0.63
COC(=O)c1ccc(NC(=O)CN(c2ccc(OC)cc2)S(C)(=O)=O)cc1	i	0.06
CN(c1ccc(OC(=O)CN2C(=O)NC3(CCCC3)C2=O)cc1)S(=O)(=O)c1ccccc1	i	-0.15
O=C(Nc1ccc2c(c1)OCCO2)N1CCOCC1	i	-0.88
Cc1nc(-c2ccc(S(=O)(=O)Nc3ccccc3C)cc2)co1	i	2.9
Cc1ccccc1C(=O)N1CCN(c2ccc(NC(=O)c3cccc(OC(C)C)c3)cc2)CC1	i	-0.1
O=C(NCc1ccccn1)C(C(=O)c1ccc(F)cc1)n1ccccc1=O (configuration not stated)	i	0.33
O=C(NCc1n[nH]c(=S)n1-c1ccc(F)cc1)c1ccc(S(=O)(=O)N2CCCCC2)cc1	i	-0.52
CN(C)CCC(Oc1ccccc1OCc1ccccc1)c1ccccc1 (configuration not stated)	i	-0.37
O=C(Nc1ccc2oc(-c3cccnc3)nc2c1)c1ccc([N+](=O)[O-])o1	i	3.2
CCOC(=O)Cc1csc(NC(=O)CCc2ccc(S(=O)(=O)N3CCOCC3)cc2)n1	i	-0.36
COc1ccc(N2CCN(c3oc(COc4ccccc4Cl)nc3C#N)CC2)cc1	i	-1.3
Cc1ccc(N2C(=O)[C@@H]3C(C(=O)CCN4C(=O)c5ccccc5C4=O)=NN[C@@H]3C2=O)cc1	i	0.06
COc1ccc(CN2C[C@H](Cc3ccccc3)[C@@H](CC(=O)Nc3ccccc3)C2=O)cc1	i	-1.6
COc1cc2nc(SCc3ccc(C(F)(F)F)cc3)n(Cc3cccs3)c(=N)c2cc1OC	i	0.13
COc1ccccc1-c1coc2cc(OC(=O)/C=C/c3ccccc3)ccc2c1=O	i	-1.6
COc1ccc(CCNC(=O)CNS(=O)(=O)c2cccs2)cc1OC	i	1.3
Cc1cc(C(F)(F)F)nc(SCC(=O)c2cccc([N+](=O)[O-])c2)n1	i	0.18
O=C(CSc1nnc2scc(-c3ccccc3)n12)NCc1ccc2c(c1)OCO2	i	-0.07
Cc1cccc(OC(=O)CN2C(=O)C3C4CCC(C4)C3C2=O)c1C (configuration not stated)	i	1.4
CC1=CC2=C(OC1N(C)C)c1cccc3cccc(c13)C2=O (configuration not stated)	i	0.47
O=C(Nc1ccc(Oc2ncnc3cc(Cl)ccc23)nc1)Nc1cccc(C(F)(F)F)c1	i	-0.71
COc1cc(C(=O)Nc2nc(N)n(-c3ccccc3)n2)cc(OC)c1OC	i	1.5
Cc1cccc(C2=N/C(=C\c3cccs3)C(=O)O2)c1	i	0.56
Cc1ccc(C2CN(C)C3(C(=O)Nc4ccccc43)C23COc2ccccc2C3=O)cc1 (configuration not stated)	i	-0.17
O=C(Nc1nc2ccccc2n1CCOc1ccc(Cl)cc1)c1ccco1	i	1.7
CC(=O)c1cccc(NC(=O)CN(c2ccccc2F)S(C)(=O)=O)c1	i	0.03
COc1ccc(N(CC2CO2)S(=O)(=O)c2ccc(C)cc2)cc1 (configuration not stated)	i	0.9
CC1CCN(c2nc3ccccc3nc2C(C#N)C(=O)OC2CCCCC2)CC1 (configuration not stated)	i	1.4
COc1ccc(C2(C)NC(=O)N(CC3CCCCC3)C2=O)cc1 (configuration not stated)	i	-0.8
COc1ccc(SCC(=O)c2cc(C)c(OC(=S)N(C)C)c(C)c2)cc1	i	-0.1
CCCN(CCC)C(C(=O)Nc1cccc(OC)c1)c1ccccc1 (configuration not stated)	-5.9*	1.4*
O=[N+]([O-])c1ccc(Oc2ccc(-c3cnc4ccccc4n3)cc2[N+](=O)[O-])cc1	i	0.54
CCOc1ccccc1NC(=O)C1CC(=O)n2ncnc2N1 (configuration not stated)	i	1.7
COC(=O)Cn1c(=NC(=O)c2ccc(Cl)s2)sc2cc(F)ccc21	i	0.98
COc1ccc(C)cc1NC(=O)C(Sc1ccccc1)c1ccccc1 (configuration not stated)	i	0.82
COCCNC(=O)/C(C#N)=C/c1ccccc1Br	i	1.2
COc1ccc(N2CC(C(=O)O)CC2=O)cc1 (configuration not stated)	i	-1.6
NC(=O)c1ccc(NC(=O)CC23CC4CC(CC(Br)(C4)C2)C3)cc1	i	-0.41
CN1CCN(NC(=O)CC(C)(C)C)CC1	i	0.9
CCS(=O)(=O)c1c(S(=O)(=O)CC)c2ccccn2c1C(N)=O	i	2

The closing 2 entries of the section before lead into the next.
SMILES	KCNQ2 block	KCNQ2 block baseline
CN1CCN(NC(=O)CC(C)(C)C)CC1	i	0.9
CCS(=O)(=O)c1c(S(=O)(=O)CC)c2ccccn2c1C(N)=O	i	2
Cc1ccc(NC(=O)CSc2nnc(C3CC3)n2CC2CCCO2)cc1C (configuration not stated)	i	2
COc1ccc(C(C(=O)NC2CCCCC2)N(C(=O)CCl)c2ccccc2Cl)cc1 (configuration not stated)	i	0.77
Cc1ccc(S(=O)(=O)N(C)CC(=O)N2CC(C)OC(C)C2)cc1 (configuration not stated)	i	-0.28
Cc1cc(C(=O)NC2CC(C)(C)Cc3c2cnn3-c2ccc(F)cc2)nn1C (configuration not stated)	i	-3.1
Cc1nnc(SCC(=O)Nc2cc(C(F)(F)F)ccc2Cl)n1C	i	0.62
COc1ccccc1NC(=O)CSc1nnc(Cn2nnc(-c3ccccc3)n2)n1-c1ccccc1	i	-1.4
Clc1ccc(Cl)c(OCCCCNCc2ccccc2)c1	i	3.9
CC(=O)c1cccc(NC(=S)NC(=O)c2cccc(Cl)c2)c1	i	1.4
Cc1nn2c(-c3cccc(NC(=O)c4ccco4)c3)nnc2c2ccccc12	i	-2.8
O=C(CCSc1ccccc1)OCn1nnc2ccccc2c1=O	i	-1.2
CCOc1ccc(CCNC(=O)c2ccc(=O)[nH]c2)cc1OCC	i	1.6
COc1cc(NC(=O)c2cccnc2)c(OC)cc1NC(=O)c1ccc(Br)cc1	i	-0.66
CCOc1ccc(C(=O)NCC2(c3ccccc3)CCOCC2)cc1	i	0.01
COC(=O)C1=C(C)N(C(C)c2ccccc2)C(=O)C1 (configuration not stated)	i	0.3
Cc1ccc(NCc2nnc(SCC(=O)N3c4ccccc4Sc4ccccc43)o2)c(C)c1	i	-0.02
CCc1cccc(NC(=O)CSc2nnc(Cc3ccc(OC)cc3)c(=O)[nH]2)c1	i	-0.45
Cc1ccc2[nH]c3c(NCc4ccccc4)ncnc3c2c1	i	-0.97
NS(=O)(=O)c1ccc(NC(=O)CN2CCc3ccccc32)cc1	i	0.87
CCOc1cc(C(=S)N2CCOCC2)ccc1OS(=O)(=O)c1ccc(Br)cc1	i	-0.22
NS(=O)(=O)c1cccc(NC(=O)C(Cc2ccccc2)NC(=O)c2ccccc2)c1 (configuration not stated)	i	-0.03
CCC(=O)OC1(C)C(=O)C=C2C=C(CCCCNC(=O)OC(C)(C)C)OC=C2C1=O (configuration not stated)	i	2.5
COc1ccccc1NC(=O)N1CCCC1C(=O)NC12CC3CC(CC(C3)C1)C2 (configuration not stated)	i	1.1
CC1CCCN(c2ccc(C(=O)NCc3ccccc3)cn2)C1 (configuration not stated)	i	-0.34
c1ccc(OCCN2CCN(C(c3ccccc3)c3ccccc3)CC2)cc1	i	1.1

Part of the list above in order of molecular weight, rising.
SMILES	KCNQ2 block	KCNQ2 block baseline
COc1ccc(N2CC(C(=O)O)CC2=O)cc1 (configuration not stated)	i	-1.6
COC(=O)C1=C(C)N(C(C)c2ccccc2)C(=O)C1 (configuration not stated)	i	0.3
Cc1cccc(C2=N/C(=C\c3cccs3)C(=O)O2)c1	i	0.56
CC1CCc2nc(/C(C#N)=C/c3cccnc3)sc2C1 (configuration not stated)	i	-0.03
CCOc1ccccc1NC(=O)C1CC(=O)n2ncnc2N1 (configuration not stated)	i	1.7
COCCNC(=O)/C(C#N)=C/c1ccccc1Br	i	1.2
Clc1ccc(Cl)c(OCCCCNCc2ccccc2)c1	i	3.9
Cc1cccc(OC(=O)CN2C(=O)C3C4CCC(C4)C3C2=O)c1C (configuration not stated)	i	1.4
Cc1cccc(NC(=O)Cn2cnc3c(oc4ccccc43)c2=O)c1	i	3
Cc1ccc(S(=O)(=O)N(C)CC(=O)N2CC(C)OC(C)C2)cc1 (configuration not stated)	i	-0.28
COc1ccc(C)cc1NC(=O)C(Sc1ccccc1)c1ccccc1 (configuration not stated)	i	0.82
Cc1nnc(SCC(=O)Nc2cc(C(F)(F)F)ccc2Cl)n1C	i	0.62
COc1cc(C(=O)Nc2nc(N)n(-c3ccccc3)n2)cc(OC)c1OC	i	1.5
CC1CCN(c2nc3ccccc3nc2C(C#N)C(=O)OC2CCCCC2)CC1 (configuration not stated)	i	1.4
CN(c1ccc(OC(=O)CN2C(=O)NC3(CCCC3)C2=O)cc1)S(=O)(=O)c1ccccc1	i	-0.15

(more compounds)
SMILES	KCNQ2 block	KCNQ2 block baseline
O=C(CSC1CN(C(c2ccccc2)c2ccccc2)C1)N/N=C/c1ccccc1	i	1.6
CC(C)(CNC(=O)c1ccc(NS(=O)(=O)c2ccc(Br)cc2)cc1)N1CCOCC1	i	-1.2
O=C(c1cccc(Cl)c1)N1CCN(c2ccc(N3CCOCC3)nn2)CC1	i	2.3
CCN1C(=O)C(C(=O)Nc2ccc(OC)cc2)C2CC1(C)Oc1ccccc12 (configuration not stated)	i	1.3
Cc1ccc(CNC(=O)c2cccc(OCc3c(C)noc3C)c2)cc1	i	-0.33
Cc1cc(C)cc(NC(=O)N2CCN(Cc3ccc4c(c3)OCO4)CC2)c1	i	-0.89
CC1CCN(c2ccccc2NC(=S)NC(=O)c2cccs2)CC1	i	-0.5
CCOC(=O)CN1CC23C=CC(O2)C(C(=O)Nc2cc(OC)ccc2OC)C3C1=O (configuration not stated)	i	1.2
COc1cc2c(c(OC)c1OC)-c1ccc(OC)c(=O)cc1C(NC(C)=O)CC2 (configuration not stated)	i	2.2
COC(=O)c1c(SCc2cccc3ccccc23)nc(=O)[nH]c1C	i	-1.1
COCCn1cnc2c1c(=O)n(CC(=O)OCC(=O)NCC(F)(F)F)c(=O)n2Cc1ccccc1	i	-0.35
C=CCn1c(=NC(=O)C2CC2)sc2cc(NC(C)=O)ccc21	i	-0.73
NC(=O)c1ccccc1NC(=O)CCn1c(=S)oc2ccccc21	i	2.1
CS(=O)(=O)c1nc(-c2ccc(F)cc2)cc(C(F)(F)F)n1	i	1
COc1ccc(Br)cc1CN(C)CC(=O)Nc1cc(Cl)ccc1Cl	i	0.19
O=c1ccn(Cc2ccccc2)c(=O)n1Cc1ccccc1	i	2.8
COc1ccc(CNC(=O)c2cccc(C)c2[N+](=O)[O-])cc1	i	-0.52
O=S(=O)(c1ccccc1OC(F)(F)F)N1CCN(c2ccnc3cc(Cl)ccc23)CC1	i	-2.2
CC(/C=C1\SC(=S)N(NC(=O)c2ccccc2C)C1=O)=C\c1ccccc1	i	1.3
Cc1ccccc1OCC(=O)OCC(=O)NCC1CCCO1 (configuration not stated)	i	-0.55
O=C(COc1ccc2ccccc2c1)NCCc1ccc2c(c1)OCCO2	i	2.1
Cc1ccc(C)c(OC(=O)c2cccnc2Cl)c1C	i	0.58
COc1cccc(CN2CCN(C3CCOCC3)CC2CCO)c1 (configuration not stated)	i	1.2
O=C(NCC(=O)N1CCN(c2ccccc2)CC1)c1ccc(Br)o1	i	-0.08
Cc1ccc(C)c(NC(=O)CN(C)C(=O)c2ccccc2OCc2ccc(Cl)cc2)c1	i	-1.1
CC(NCCC(Cc1ccccc1)c1ccco1)c1ccccc1 (configuration not stated)	i	-0.3
COc1ccc(C(C(=O)NC2CCCC2)N(C(=O)c2ccco2)c2cccc(C(C)=O)c2)cc1OC (configuration not stated)	i	-2.1
Cc1cc(C)n(CC(=O)N2c3ccccc3Sc3ccc(C(F)(F)F)cc32)n1	i	0.09
Cc1cccc(C)c1NC(=O)/C(=C/c1ccco1)c1ccccc1	i	-0.63
COc1cc(NC(=S)NC(=O)c2c(OC)cccc2OC)ccc1NC(=O)c1cccs1	i	-0.84
COC(=O)c1oc(-c2ccc(Cl)cc2)nc1C	i	0.2
O=C(c1ccc(COc2ccccc2Br)o1)N1CCCCCC1	i	0.02
O=C(CNc1ccc(Cl)cc1)NNC(=S)NCc1ccccc1	i	-0.01
O=C(NC1CCCCC1)c1cc(-c2ccc(O)cc2)on1	i	0.3
CC1=NN(/C(=N\c2nnc(C)s2)Nc2ccc(C(C)(C)C)cc2)[C@H](c2ccc(C)cc2)S1	i	1.6
O=C(c1ccco1)N1CCN(c2ccc([N+](=O)[O-])cc2F)CC1	i	0.46
CCN1CCCc2cc(CN(CCN3CCOCC3)C(=S)Nc3ccc(OC)c(Cl)c3)ccc21	i	0.3
CCC(C(=O)NC1CCCC1)N(Cc1ccc2c(c1)OCO2)C(=O)c1snc(C(N)=O)c1N (configuration not stated)	i	0.14
Cc1ccc(-c2nc3nc4ccccc4nc3n2Cc2ccco2)cc1	i	-0.03
Cn1cccc1-c1cc(C(=O)N2CCc3c([nH]c4ccccc34)C2c2ccccn2)[nH]n1 (configuration not stated)	i	-0.27
Cc1nc(CCNS(=O)(=O)c2cccnc2)cs1	i	1.4
COc1ccc(CCNC(=O)c2ccc3ccccc3n2)cc1	i	-0.01
O=C(COC(=O)[C@H](Cc1ccccc1)NC(=O)c1cccs1)NC1CC1	i	1.6
